Bioassay records: PubChem BioAssay, Broad Institute
AF4-AF9 inh = inhibitors of human MLL-AF4/AF9 interaction; inhibition, % at 10 µM; 350,000 compounds, 0.47% hits; AlphaScreen, biotin-AF4 peptide binding to FLAG-AF9; P42568;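 active means every replicate reaching a set inhibition limit, whatever the replicate mean, cut at about 25% in these data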;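 further: 0% = plate neutral control median and 100% = total signal loss; the record names both 10 and 1 µM as test concentration; the first replicate is given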
Target sequence (P42568 whole entry, looked up): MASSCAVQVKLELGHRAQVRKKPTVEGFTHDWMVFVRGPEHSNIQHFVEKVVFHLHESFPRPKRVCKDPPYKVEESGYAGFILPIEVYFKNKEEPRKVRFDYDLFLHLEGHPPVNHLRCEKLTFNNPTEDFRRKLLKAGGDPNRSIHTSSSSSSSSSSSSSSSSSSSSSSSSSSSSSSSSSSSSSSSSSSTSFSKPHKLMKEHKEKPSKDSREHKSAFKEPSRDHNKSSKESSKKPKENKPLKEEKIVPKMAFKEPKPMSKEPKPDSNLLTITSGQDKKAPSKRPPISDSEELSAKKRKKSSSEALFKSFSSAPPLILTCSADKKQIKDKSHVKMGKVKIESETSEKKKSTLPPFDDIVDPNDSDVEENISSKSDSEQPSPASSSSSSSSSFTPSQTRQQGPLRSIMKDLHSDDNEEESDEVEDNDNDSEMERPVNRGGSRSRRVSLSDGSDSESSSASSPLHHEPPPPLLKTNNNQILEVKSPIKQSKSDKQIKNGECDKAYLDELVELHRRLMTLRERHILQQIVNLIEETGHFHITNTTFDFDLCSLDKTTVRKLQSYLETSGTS
rRNA inh HTS = inhibits bacterial ribosomal RNA function over humanized ribosomes | E. coli WT GFP vs humanized-ribosome RFP mutants, fluorescence, 24 h; hits give low values; DMSO median 0, no signal -100 | GFP signal change (wild-type ribosome), % (no concentration beside the values) | 350,000 compounds, 1.6% hits;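 active means significant combined selectivity score with lowered wild-type GFP, culture density cut under 30%, mutant RFP and density less affected; inactive means any of these conditions unmet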; further: one replicate is shown; some compounds called inactive have numbers as strong as hits
rRNA inh HTS OD600 = recorded beside rRNA inh HTS, whose call it bears; OD600 change, %; measured here: OD600 growth;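 optical density of the mix in the first replicate; 0 = DMSO median and -100 = no signal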
rRNA inh HTS RFP = also measured in rRNA inh HTS; calls as there; RFP signal change, %; measured here: RFP humanized mutant strains;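 first replicate; 0 = DMSO median and -100 = no signal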
The depositor's hits bear a star. Not all compounds are listed; count on the stated rates, not on these rows.

rRNA inh HTS | rRNA inh HTS OD600 | AF4-AF9 inh | rRNA inh HTS RFP | mol
-3 | 4 | 1.5 | -6.6 | CN1C[C@@H]2[C@@H]3C(=O)N(C)C(=O)[C@@H]3[C@](Cc3ccccc3)(C1=O)N2C(=O)c1ccc(Cl)cc1
2 | -1 | 0.9 | -0.2 | O=C(Nc1cccnc1)C1Cc2c(-c3ccc4c(c3)OCO4)ccnc2O1 (configuration not stated)
3 | 11 | -1.5 | -0.6 | COCC(=O)N1[C@H](CO)[C@H](c2ccc(-c3cccnc3)cc2)[C@@H]1C#N
-3 | -5 | -4.7 | -3.6 | COc1ccc(NC(=O)N(C)C[C@H]2OCCCC[C@H](C)Oc3ccc(NS(C)(=O)=O)cc3C(=O)N([C@H](C)CO)C[C@@H]2C)cc1
-1 | 12 | -12 | -2.8 | O=C(C[C@H]1CC[C@@H]2[C@H](COC[C@H](O)CN2Cc2cccc(F)c2)O1)NCC1CCCCC1
-3 | 13 | 2.9 | -2.4 | C[C@H](O)C#Cc1ccc([C@H]2[C@@H](CO)N3CCCCN(C(=O)c4ccc5c(c4)OCO5)C[C@@H]23)cc1
2 | 14 | 0.4 | 0.9 | COc1cccc(NC(=O)N2C[C@H](O)COC[C@H]3O[C@@H](CC(=O)NC4Cc5ccccc5C4)CC[C@@H]32)c1
6 | 21 | 1.0 | -1.2 | CCC(=O)N1CCC1(C)C(=O)NS(=O)(=O)c1cccc(C#N)c1 (configuration not stated)
4 | -12 | 2.1 | -1.4 | COCCNc1nc(NCc2cccc(OC)c2OC)c2sccc2n1
21 | 20 | -2.9 | 5.7 | C[C@@H]1Cc2[nH][nH]c(=O)c2[C@H](c2ccc(Cl)cc2)O1
-12 | -28 | -1.4 | -0.3 | CCCCC(CCc1ccccn1)C(=O)c1ccccc1 (configuration not stated)
9 | 5 | 5.2 | 1.9 | CCOC(=O)c1c(NC(=O)C2CCCN2S(=O)(=O)c2cccc3nsnc23)sc(C)c1C (configuration not stated)
1 | -10 | 1.1 | 2.9 | C[C@@H]1CN([C@@H](C)CO)C(=O)Cc2cc(NC(=O)Cc3ccccc3)ccc2O[C@H]1CN(C)S(=O)(=O)c1ccc(Cl)cc1
2 | 4 | 6.8 | -4.2 | COc1ccccc1S(=O)(=O)N(C)C[C@@H]1Oc2cc(/C=C/c3ccccc3)ccc2S(=O)(=O)N([C@H](C)CO)C[C@H]1C
21 | 14 | -3.2 | 20 | COc1ccc(Cc2c(-c3cccc(Br)c3)nc3cc(C)c(Br)c(C)n23)c(C)c1
19 | 18 | -0.9 | 6.8 | CCOC(=O)c1ccc(NC(=O)OC[C@@H]2CSCCS(=O)(=O)N2)cc1
4 | 13 | -2.3 | -1.2 | C[C@@H]1CN([C@H](C)CO)C(=O)c2cccc(NC(=O)Nc3ccc(F)cc3)c2O[C@@H]1CN(C)C
-2 | -2 | 5.6 | 3.0 | C[C@@H]1CCCCO[C@H](CN(C)S(=O)(=O)c2ccc(Cl)cc2)[C@H](C)CN([C@H](C)CO)C(=O)c2cc(NC(=O)c3ccncc3)ccc2O1
-2 | -1 | 0.4 | 0.9 | O=C(Nc1ccc2c(c1)[C@@H]1C[C@H](CC(=O)N3CCCCC3)O[C@@H](CO)[C@@H]1O2)Nc1ccccc1F
-2 | -1 | -0.4 | 1.1 | CCCN1[C@H](C(=O)OC)[C@@H](CO)[C@@H]2Cn3c(ccc(-c4ccc(F)cc4)c3=O)[C@@H]21
0 | -5 | 2.0 | -2.5 | CC(C)NC(=O)N(C)C[C@@H]1Oc2c(NC(=O)Nc3ccc(C(F)(F)F)cc3)cccc2C(=O)N([C@@H](C)CO)C[C@@H]1C
5 | 8 | 1.3 | 2.6 | COc1nc(N)nc2c1ncn2C1OC(CO)CC1O (configuration not stated)
0 | 1 | -0.8 | 2.0 | C[C@@H]1CCCCO[C@@H](CN(C)C(=O)Nc2ccc(F)cc2)[C@H](C)CN([C@H](C)CO)C(=O)c2cc(NS(=O)(=O)c3cn(C)cn3)ccc2O1
2 | 0 | 0.4 | -0.4 | CN(C)C(=O)C[C@@H]1CC[C@H]2[C@@H](COc3ccc(NC(=O)c4ccc(F)c(F)c4)cc3C(=O)N2C)O1
0 | -1 | 1.8 | -4.0 | C[C@@H]1CN([C@@H](C)CO)C(=O)c2cc(NS(C)(=O)=O)ccc2O[C@@H](C)CCCCO[C@H]1CN(C)C
6 | 13 | -0.7 | -2.7 | CO[C@@H]1CN(C)C(=O)c2ccc(NS(C)(=O)=O)cc2OC[C@@H](C)N(C(=O)C2CCCC2)C[C@H]1C
0 | -7 | -2.4 | 1.6 | CN(C)C(=O)[C@H]1[C@H](CO)[C@H]2Cn3c(ccc(C4=CCCC4)c3=O)[C@@H]1N2CC1CCCCC1
-5 | -1 | -3.1 | -0.5 | C[C@@H]1CN([C@@H](C)CO)C(=O)c2cc(NC(=O)CCC(F)(F)F)ccc2O[C@H]1CN(C)S(=O)(=O)c1cccs1
-18 | -39 | -0.2 | 17 | O=S(=O)(c1ccccc1)N1CC2(C1)[C@H](c1ccccc1)[C@H](CO)N2CC1CCCC1
1 | -5 | -1.5 | 4.4 | C/C=C/c1ccc([C@@H]2[C@@H](CN(C)C(=O)C3CC3)N(C(=O)C3CC3)[C@H]2CO)cc1
7 | 8 | -1.4 | -3.7 | CC[C@]12c3[nH]c4ccc(OC)cc4c3CCN1C(=O)C(CC(=O)NCc1ccco1)C[C@@H]2C(=O)N1CCN(C(=O)C2CC2)CC1 (some centres not stated)
-1 | 2 | -1.7 | -3.4 | C[C@@H]1CCCCO[C@@H](CN(C)C(=O)Nc2ccccc2)[C@H](C)CN([C@@H](C)CO)C(=O)c2cc(NS(=O)(=O)c3cn(C)cn3)ccc2O1
-4 | 3 | 1.3 | -4.4 | COc1ccc(Cn2cc(CN3CC(N4CCN(C5CCN(C)CC5)CC4)CS3(=O)=O)nn2)cc1 (configuration not stated)
4 | 4 | -0.9 | -0.1 | C[C@@H]1CN([C@@H](C)CO)C(=O)c2cccc(NC(=O)C3CC3)c2O[C@H]1CN(C)S(C)(=O)=O
0 | 1 | 0.6 | -1.2 | C[C@H](CO)N1C[C@H](C)[C@H](CN(C)C(=O)Nc2ccccc2)OCCCC[C@H](C)Oc2ccc(NC(=O)c3ccccc3)cc2C1=O
-1 | -11 | -0.2 | -2.6 | CCCC(=O)Nc1ccc2c(c1)C(=O)N(C)[C@H]1CC[C@@H](CC(=O)NCCc3ccccc3)O[C@H]1CO2
-14 | -13 | -1.5 | 4.4 | O=C(COC(=O)c1ccc(O)cc1O)NC1CCCCCC1
7 | 8 | 13 | 3.5 | C[C@@H]1CN([C@@H](C)CO)S(=O)(=O)c2ccc(C#Cc3ccccc3)cc2O[C@@H]1CN(C)C(=O)CN(C)C
3 | -2 | -2.2 | 2.5 | C[C@H](CO)N1C[C@H](C)[C@H](CN(C)Cc2ccc(C(F)(F)F)cc2)Oc2ccc(NC(=O)NC3CCCCC3)cc2CC1=O
-1 | -3 | 0.8 | 0.6 | COc1ccc(S(=O)(=O)Nc2ccc3c(c2)C(=O)N([C@@H](C)CO)C[C@H](C)[C@@H](CN(C)C(=O)Nc2ccc(F)cc2)OCCCC[C@H](C)O3)cc1
-8 | -25 | -1.9 | -0.7 | CCC(=O)N1CC[C@@H]2[C@H]1c1cc(-c3ccc(F)cc3)ccc1N(C)[C@@H]2CO
2 | 6 | -9.7 | -1.2 | C[C@@H]1CN([C@@H](C)CO)C(=O)c2cccc(NS(=O)(=O)c3ccc(F)cc3)c2O[C@H]1CN(C)S(=O)(=O)c1cn(C)cn1
8 | 8 | -1.0 | -0.8 | Cc1ccc(F)c(S(=O)(=O)NC(=O)C2(C)CCN2C(=O)c2ccccc2)c1 (configuration not stated)
0 | 5 | -3.2 | -1.2 | CO[C@@H]1CN(C)C(=O)c2cc(NS(C)(=O)=O)ccc2OC[C@@H](C)N(C(=O)C2CCC2)C[C@@H]1C
-2 | -4 | 0.6 | -1.1 | C[C@@H]1CCCCO[C@@H](CN(C)C(=O)NC2CCCCC2)[C@@H](C)CN([C@@H](C)CO)C(=O)c2cc(NS(=O)(=O)c3cccs3)ccc2O1
-12 | -34 | 1.2 | 14 | C[C@H](CO)N1C[C@H](C)[C@H](CN(C)Cc2cccc(C(F)(F)F)c2)Oc2ncc(-c3ccccc3)cc2C1=O
-1 | 9 | 1.1 | 3.1 | COc1ccc(NC(=O)N(C)C[C@@H]2OCCCC[C@H](C)Oc3ccc(NC(=O)CCC(F)(F)F)cc3C(=O)N([C@@H](C)CO)C[C@@H]2C)cc1
-3 | 7 | -3.9 | -2.9 | C[C@@H]1CN([C@H](C)CO)C(=O)c2cc(-c3ccncc3)cnc2O[C@@H]1CN(C)C(=O)Cc1cccnc1
4 | 1 | -1.5 | 1.2 | CCCS(=O)(=O)NC(=O)C1(C)CCCN(C(=O)C2(c3ccc(Cl)cc3)CCCC2)C1 (configuration not stated)
-8 | -18 | -1.3 | -4.9 | COC(=O)C[C@H]1CC[C@H]2[C@@H](COc3ccc(NC(=O)Nc4cc(C)cc(C)c4)cc3C(=O)N2C)O1
-4 | -4 | -2.9 | 3.4 | O=S1(=O)N[C@H](Cc2ccccc2)COc2cc(N3CCOCC3)ccc21
4 | 7 | -0.2 | -1.3 | C[C@H]1CN([C@@H](C)CO)C(=O)Cc2cc(NC(=O)Cn3cnnn3)ccc2O[C@H]1CN(C)CC1CC1
2 | 12 | -0.9 | -4.2 | C[C@@H]1CN([C@H](C)CO)S(=O)(=O)c2ccc(C#Cc3ccccc3)cc2O[C@H]1CN(C)S(=O)(=O)c1ccccc1F
-4 | 0 | 0.5 | 1.0 | O=S(=O)(N[C@H]1CC[C@H](CCn2cc(Cc3ccccc3)nn2)O[C@@H]1CO)c1ccccc1F
0 | 4 | -0.6 | 1.5 | COCC(=O)NC[C@H]1N[C@H](CO)[C@@H]1c1ccc(-c2ccccc2)cc1
17 | 8 | -1.0 | 2.3 | COC(=O)[C@]12CCCCC=C1N(CCC1=CCCCC1)C(=O)[C@H](CC(=O)NCc1cccc(C(F)(F)F)c1)C2
8 | 18 | -2.9 | -2.8 | CC(C)(C)C(=O)c1c(N)[nH]c(C(=O)c2ccccc2)c1-c1ccccc1Br
7 | 5 | -18 | 1.5 | CC(=O)N(C)C[C@H]1Oc2ncc(C#Cc3cccnc3)cc2C(=O)N([C@@H](C)CO)C[C@H]1C
2 | 9 | -2.9 | 2.4 | Cc1noc(C)c1NC(=O)Nc1ccc2c(c1)C(=O)N([C@@H](C)CO)C[C@H](C)[C@@H](CN(C)Cc1ccncc1)OCCCC[C@H](C)O2
6 | 10 | 0.9 | 0.1 | O=C(Nc1nnc([C@@H]2C[C@H](O)[C@@H](CO)O2)s1)NC1CCCCC1

Further entries follow.
rRNA inh HTS | rRNA inh HTS OD600 | AF4-AF9 inh | rRNA inh HTS RFP | mol
1 | -4 | -4.7 | -1.1 | CCC(=O)N(C)C[C@H]1Oc2ncc(C#C[C@H](C)O)cc2C(=O)N([C@H](C)CO)C[C@H]1C
0 | 6 | -0.5 | -6.4 | Cc1ccccc1S(=O)(=O)N1[C@H](CO)[C@H](c2ccccc2)[C@@H]1C#N
2 | -13 | 1.7 | 4.9 | C[C@H](CO)N1C[C@H](C)[C@H](CN(C)S(=O)(=O)c2ccccc2)Oc2ccc(NS(=O)(=O)c3ccc(Cl)cc3)cc2CC1=O
11 | 9 | -2.5 | -3.1 | O=C(OCc1ccccc1)N1CCC2CC1c1cc(-c3ccc4c(c3)OCO4)ccc12 (configuration not stated)
1 | 4 | -0.8 | -3.4 | O=C(C[C@H]1CC[C@H]2[C@@H](COC[C@@H](O)CN2S(=O)(=O)c2ccccc2)O1)NCCN1CCCCC1

Among those listed so far, these contain two or more sulfur atoms.
rRNA inh HTS | rRNA inh HTS OD600 | AF4-AF9 inh | rRNA inh HTS RFP | mol
9 | 5 | 5.2 | 1.9 | CCOC(=O)c1c(NC(=O)C2CCCN2S(=O)(=O)c2cccc3nsnc23)sc(C)c1C (configuration not stated)
2 | 4 | 6.8 | -4.2 | COc1ccccc1S(=O)(=O)N(C)C[C@@H]1Oc2cc(/C=C/c3ccccc3)ccc2S(=O)(=O)N([C@H](C)CO)C[C@H]1C
19 | 18 | -0.9 | 6.8 | CCOC(=O)c1ccc(NC(=O)OC[C@@H]2CSCCS(=O)(=O)N2)cc1
-5 | -1 | -3.1 | -0.5 | C[C@@H]1CN([C@@H](C)CO)C(=O)c2cc(NC(=O)CCC(F)(F)F)ccc2O[C@H]1CN(C)S(=O)(=O)c1cccs1
2 | 6 | -9.7 | -1.2 | C[C@@H]1CN([C@@H](C)CO)C(=O)c2cccc(NS(=O)(=O)c3ccc(F)cc3)c2O[C@H]1CN(C)S(=O)(=O)c1cn(C)cn1
-2 | -4 | 0.6 | -1.1 | C[C@@H]1CCCCO[C@@H](CN(C)C(=O)NC2CCCCC2)[C@@H](C)CN([C@@H](C)CO)C(=O)c2cc(NS(=O)(=O)c3cccs3)ccc2O1
2 | 12 | -0.9 | -4.2 | C[C@@H]1CN([C@H](C)CO)S(=O)(=O)c2ccc(C#Cc3ccccc3)cc2O[C@H]1CN(C)S(=O)(=O)c1ccccc1F
2 | -13 | 1.7 | 4.9 | C[C@H](CO)N1C[C@H](C)[C@H](CN(C)S(=O)(=O)c2ccccc2)Oc2ccc(NS(=O)(=O)c3ccc(Cl)cc3)cc2CC1=O
